# Beta apoptosis: inhibitors of cytokine-induced beta cell apoptosis, primary screen, luminescence. INS-1E cytokine-induced death, ATP luminescence, 48 h; percent of positive-control rescue, neutral wells zero. protection from apoptosis, % (concentration not given with the values). actives 0.8% (n = 300,000). AID 435005, 2010;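 active = all replicates at 75% or more, or half of them and the mean; inconclusive = half reach 75% but not the mean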;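 also: 0% = cytokine-treated negative control wells and 100% = positive control rescue; higher means more ATP so stronger rescue from cytokine killing; wells of about 40 µL received 100 nL stock; the first replicate is given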
# RanGTP-Imp inh: inhibitors of RanGTP-importin-beta interaction, primary screen, biochemical, FRET, CFP-Ran, YFP-importin-beta, homogeneous; cell-free CFP-Ran/YFP-importin-beta FRET ratio; inhibition, % (test concentration not listed); actives 1.1% (n = 300,000);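 active = most replicates above 15%; inconclusive = exactly half above 15%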;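 also: 0% = DMSO wells and 100% = Ran loaded with GDP instead of GTP; wells of about 40 µL received 100 nL stock; the first replicate is given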
# rRNA inh HTS: reduced GFP signal of wild-type E. coli, primary screen, bacterial rRNA inhibitor project, GFP/RFP fluorescence, OD600, single point. E. coli WT GFP vs humanized-ribosome RFP mutants, 24 h; stronger effect = lower value; DMSO median 0, no signal -100. GFP signal change (wild-type ribosome), % (concentration not given with the values). actives 1.6% (n = 350,000);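 active = significant combined selectivity score with lowered wild-type GFP, culture density cut under 30%, mutant RFP and density less affected; inactive = any of these conditions unmet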; also: one replicate is shown; some compounds called inactive have numbers as strong as hits
# MLL AF4-AF9 inh: inhibitors of AF4 peptide binding to AF9, primary screen, biochemical, AlphaScreen, biotin-AF4 peptide, FLAG-AF9, single point; inhibition, % at 10 µM; actives 0.47% (n = 350,000); AID 651704, 2012; Protein AF-9 (Homo sapiens), P42568;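 active = every replicate reaching a set inhibition limit, whatever the replicate mean, cut at about 25% in these data; inconclusive = mean inhibition reaches that limit but some replicates miss it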;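 also: 0% = plate neutral control median and 100% = total signal loss; the record names both 10 and 1 µM as test concentration; the first replicate is given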
# Target sequence (P42568 whole entry, looked up): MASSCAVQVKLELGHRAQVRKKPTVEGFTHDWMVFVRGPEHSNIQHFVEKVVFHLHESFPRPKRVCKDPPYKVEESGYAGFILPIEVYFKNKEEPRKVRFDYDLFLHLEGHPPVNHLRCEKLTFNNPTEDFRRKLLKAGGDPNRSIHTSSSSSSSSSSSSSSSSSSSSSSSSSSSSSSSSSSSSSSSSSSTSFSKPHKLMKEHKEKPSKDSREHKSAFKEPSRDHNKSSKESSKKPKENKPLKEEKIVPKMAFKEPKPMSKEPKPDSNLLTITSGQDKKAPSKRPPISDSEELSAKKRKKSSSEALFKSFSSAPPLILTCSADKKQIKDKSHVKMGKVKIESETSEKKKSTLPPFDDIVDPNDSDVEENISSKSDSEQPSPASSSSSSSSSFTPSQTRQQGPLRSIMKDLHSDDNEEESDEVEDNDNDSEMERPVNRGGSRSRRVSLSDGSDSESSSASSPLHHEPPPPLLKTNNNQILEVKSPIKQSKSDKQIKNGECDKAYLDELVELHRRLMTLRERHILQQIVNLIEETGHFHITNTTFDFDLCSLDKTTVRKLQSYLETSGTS
# Vif A3G: inhibitors of Vif binding to APOBEC3G peptide, primary screen, biochemical, TR-FRET, GST-Vif 1-94, biotin-A3G peptide, dose response retest (AID 1117319). Virion infectivity factor (Human immunodeficiency virus type 1 group M subtype B (isolate …. TR-FRET GST-Vif / biotin-A3G peptide binding; higher % means a stronger effect; test concentration not given here; strong numbers were not always called active. inhibition, %; hits with a dose series show IC50 in µM. actives 0.57% (n = 260,000);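 active = above the screen mean plus three standard deviations and confirmed in dose response; inconclusive = results disagree or hit not tested in dose response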;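 also: Vif residues 1-94 fused to GST binding biotinylated APOBEC3G peptide 110-148; 0% = full assay without inhibitor and 100% = GST in place of GST-Vif; retest series ran down from 100 µM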
# Calb FLC: C. albicans growth inhibition with fluconazole, primary screen, CaCi-2 strain, Alamar Blue fluorescence; C. albicans CaCi-2 (fluconazole-resistant clinical isolate) + fluconazole, 48 h; growth inhibition, % (test concentration not listed); actives 0.57% (n = 300,000); AID 1979, 2009;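 active = most replicates above 75%; inconclusive = exactly half above 75%; inactive = most below 75%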;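 also: all wells also contain fluconazole at 8 µg/ml as a sub-toxic cotreatment; 0% = median of DMSO wells and 100% = median of geldanamycin control wells; wells of about 8 µL received 7.5 nL stock; the first replicate is given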
# T cruzi repl: inhibitors of intracellular T. cruzi growth, primary screen, luminescence, NIH3T3 host cells; AID 1885, 2009; actives 1.4% (n = 300,000); T. cruzi beta-gal in NIH3T3, 90 h; inhibition, % (no concentration beside the values);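 active = mean inhibition across valid replicates above about 55%, limit read from the data; inconclusive = mean below that limit but half or more replicates reach it; inactive = mean below it, under half of replicates reach it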;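 also: signal also drops with host cell toxicity which is not excluded here; 0% = plate median of DMSO wells and 100% = zero luminescence signal; higher percent means less beta-gal luminescence so fewer parasites; stock transfer was 50 nL into about 50 µL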
# Bfl-1 A1 inh: caspase 3/7 activation in MEF A1-2A-BIM cells, primary screen, A1 inhibitor project, cell-based, luminescence, HTS. Caspase-Glo 3/7 luminescence, 3 h; percent of clofoctol response, vehicle zero. caspase activation, % (test concentration not listed). actives 0.066% (n = 330,000). AID 2462, 2010;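 active = over half of replicate activation scores above 10%, or exactly half above 10 with the replicate mean above 10; inconclusive = replicate mean below 10 yet half the replicates above 10; inactive = over half of replicates below 10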;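 also: wells of about 30 µL received 50 nL stock; many hits fall short of the cut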
# rRNA inh HTS OD600: recorded beside rRNA inh HTS, whose call it bears; OD600 change, %; measured here: OD600 growth;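 optical density of the mix in the first replicate; 0 = DMSO median and -100 = no signal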
# rRNA inh HTS RFP: also measured in rRNA inh HTS; calls as there; RFP signal change, %; measured here: RFP humanized mutant strains;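 first replicate; 0 = DMSO median and -100 = no signal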
# Active calls of the source: *; ? = inconclusive; nt = no result given. An excerpt; count on the stated rates, not on these rows.
SMILES,Beta apoptosis,RanGTP-Imp inh,rRNA inh HTS,rRNA inh HTS OD600,rRNA inh HTS RFP,MLL AF4-AF9 inh,Vif A3G,Calb FLC,T cruzi repl,Bfl-1 A1 inh
Cn1c(Cc2cccc3ccccc23)nnc1SCc1ccc([N+](=O)[O-])cc1,4.4,3.7,nt,nt,nt,nt,?,-11.4,16.7,-0.9
COc1ccc(C2(c3ccc(OC)cc3)NC(=O)N(CC(=O)NC3(C#N)CCCCC3)C2=O)cc1,3.6,nt,-11.1,-18.6,1.1,3.2,nt,nt,nt,1.0
CC(=O)Oc1ccc2occ(/C=N/c3cc(=O)[nH]c(=S)[nH]3)c(=O)c2c1,-7.7,-3.4,7.6,12.4,0.5,-5.2,?,1.3,11.6,2.0
Cc1cc(OCC(=O)N(C)Cc2ccccc2)ccc1Br,-13.2,1.8,-25.6,-50.7,3.1,-1.8,nt,2.6,-2.1,-0.2
O=C(COc1ccc2ccccc2c1)NNC(=O)c1cccs1,-1.7,0.6,-2.8,12.4,-2.2,-3.2,nt,-4.6,-6.0,0.2
CCCn1c(=O)c2ccccc2n2c(SCCOc3ccc(OC)cc3)nnc12,11.2,-5.2,-18.4*,-0.1*,1.5*,-31.6,6.2%,10.6,3.8,0.8
COc1cc(S(=O)(=O)n2nc(C)cc2C)ccc1Cl,-1.1,0.6,-8.7,-6.4,3.2,-4.2,nt,20.6,-1.3,0.4
Cn1c(=O)c(C(=O)c2ccc(S(C)(=O)=O)c(Cl)c2Cl)c(O)c2ccccc21,-5.2,1.3,1.6,10.0,-0.8,0.5,nt,-5.7,-18.0,0.8
Cc1[nH]c2ccccc2c1/C=N/NC(=O)c1cccc(Br)c1,-4.4,-7.7,-9.6,-3.6,1.8,nt,-3.2%,-17.4,-1.1,-0.2
CCN(CC)CCN(C(=O)/C=C/c1cccs1)c1nc2ccc(C)cc2s1,20.0,-1.5,-10.2,2.8,-1.1,3.0,nt,-17.9,23.6,0.7
CN(C)c1ccc(/C=N/NC(=O)c2ccc(Cn3cc(Br)cn3)o2)cc1,2.5,-2.4,nt,nt,nt,nt,5.6%,-32.3,-0.8,-1.1
Cc1ccc(S(=O)(=O)NCc2nc(-c3ccccc3)no2)cc1,-4.3,3.8,-8.7,-14.6,-3.0,-1.7,nt,-2.4,2.2,1.5
COC(=O)c1cn(NC(=O)c2ccc(F)cc2)c(=O)c2ccccc12,1.8,-0.4,nt,nt,nt,nt,-2.3%,-25.6,6.2,0.5
CC1(C)CC(=O)C=C(NC2=CC3OC(c4ccccc4)OCC3OC2=O)C1 (stereo not given),-39.8,0.8,13.7,12.1,0.1,1.2,8.1%,-9.0,-49.6,-0.1
Cc1cccc(C(=O)N2CCC(=O)N(C(COCc3ccccc3)Cc3ccccc3)CC2)c1 (stereo not given),nt,-0.5,-20.6,-25.2,-13.9,-0.9,17.4%,-0.6,2.6,0.6

# Shown tab-delimited: part of the list above.
SMILES	Beta apoptosis	RanGTP-Imp inh	rRNA inh HTS	rRNA inh HTS OD600	rRNA inh HTS RFP	MLL AF4-AF9 inh	Vif A3G	Calb FLC	T cruzi repl	Bfl-1 A1 inh
Cc1[nH]c2ccccc2c1/C=N/NC(=O)c1cccc(Br)c1	-4.4	-7.7	-9.6	-3.6	1.8	nt	-3.2%	-17.4	-1.1	-0.2
COc1cc(S(=O)(=O)n2nc(C)cc2C)ccc1Cl	-1.1	0.6	-8.7	-6.4	3.2	-4.2	nt	20.6	-1.3	0.4
COC(=O)c1cn(NC(=O)c2ccc(F)cc2)c(=O)c2ccccc12	1.8	-0.4	nt	nt	nt	nt	-2.3%	-25.6	6.2	0.5
CCN(CC)CCN(C(=O)/C=C/c1cccs1)c1nc2ccc(C)cc2s1	20.0	-1.5	-10.2	2.8	-1.1	3.0	nt	-17.9	23.6	0.7

# Other entries follow:
SMILES,Beta apoptosis,RanGTP-Imp inh,rRNA inh HTS,rRNA inh HTS OD600,rRNA inh HTS RFP,MLL AF4-AF9 inh,Vif A3G,Calb FLC,T cruzi repl,Bfl-1 A1 inh
Cc1c(C(=O)N2CCOCC2)c(S(=O)(=O)Nc2ccc(Br)cc2F)c(C)n1C,-12.0,0.9,5.5,8.0,-0.6,-1.4,nt,-1.1,-9.1,1.2
COc1ccc(/C=C/c2nnc(NC(=O)COc3ccc(C)cc3)s2)cc1,-3.6,0.0,nt,nt,nt,nt,nt,5.1,-8.4,1.5
CC(Cc1ccccc1)NC(=O)CSc1nc2nc3c(cc2c(=O)n1-c1ccccc1)COC(C)(C)C3 (stereo not given),-0.2,-3.1,nt,nt,nt,nt,4.5%,55.3,16.8,0.2
CCc1ccc(N(CC(=O)NCc2ccco2)C(=O)CCC(=O)Nc2ccccn2)cc1,-9.0,3.5,6.5,6.1,-1.1,-0.7,nt,10.6,3.9,0.0
CC(C)(C)c1cc(C(F)(F)F)nc(SCCCNC(=O)c2ccco2)n1,6.1,-0.9,nt,nt,nt,nt,0.2%,2.1,14.8,-0.7
COc1ccc(NC2CCCN(C(=O)c3cccs3)C2)cc1 (stereo not given),-4.8,1.0,6.4,9.1,1.2,6.6,-0.8%,-14.3,-2.7,0.1
COc1ccc(CNC(=O)c2cc(=O)c3c(C)cc(C)cc3o2)cc1,1.0,4.6,2.8,14.6,-2.1,0.9,0.6%,11.8,2.4,-1.3
Cc1cccn2c(=O)nc(SCC(=O)N3CCOCC3)nc12,nt,0.7,-4.9,-0.3,-3.2,0.6,0.2%,-1.0,-4.2,0.5
Cc1nc2ccccc2n1CC(=O)NN,-3.8,?,-0.4,0.7,-0.5,-1.7,-0.4%,?,5.6,-0.4
CCCN(C(=O)c1ccco1)c1nnc(-c2ccccc2C)s1,-0.5,0.5,nt,nt,nt,-5.3,nt,-3.3,37.7,-0.4
COc1ccccc1CNS(=O)(=O)c1ccc(Cl)s1,-4.3,-6.7,-4.6,-11.4,5.5,0.1,nt,2.2,-2.8,1.6
COc1ccc(/C=C2\CCc3ccccc3C2=O)cc1CN1CCOCC1,-0.3,2.3,-29.5*,-0.4*,-1.0*,?,-7.4%,21.4,?,-0.2
CCCc1c(O)nc(SCC(=O)O)[nH]c1=O,-0.6,-1.5,16.4,21.2,2.0,-2.0,-5.9%,3.2,-35.7,0.5
Cc1ccc(C(=O)OCC(=O)Nc2cccc(S(=O)(=O)N3CCCCC3)c2)o1,-3.4,nt,-6.1,-7.1,0.8,2.0,nt,nt,nt,0.3
O=C(NCC1CCCO1)C1CCN(S(=O)(=O)c2ccccc2)CC1 (stereo not given),-3.3,-0.5,5.1,8.4,1.7,-2.0,-0.7%,2.5,-6.1,-0.2
O=C(c1cccc(S(=O)(=O)Nc2ccccc2Cl)c1)N1CCN(c2ccccc2O)CC1,9.2,nt,-7.8,-26.6,1.2,1.0,9.9%,nt,nt,1.5
CN(C)S(=O)(=O)c1ccc(Cl)c(C(=O)NCC2CCCCC2)c1,-5.6,-1.1,5.1,11.8,-0.4,1.5,nt,-14.3,11.5,-1.0
CCOC(=O)N1CCC(N(CCN(C)C)C(=S)Nc2cc(C)ccc2C)CC1,-2.6,5.6,nt,nt,nt,nt,-7.8%,-0.2,5.2,-0.2
O=C(NC(N1CCOCC1)C(Cl)(Cl)Cl)c1cc([N+](=O)[O-])cc([N+](=O)[O-])c1 (stereo not given),-4.5,6.2,12.1,3.2,22.1,1.9,7.5%,12.8,93.5*,2.0
CCC(C)Oc1cccc(C(=O)Nc2ccccc2N2CCOCC2)c1 (stereo not given),2.8,0.8,nt,nt,nt,nt,?,-2.8,8.4,-0.4
C[C@@]12CCC3[C@@](CCC4[C@@]3(C)CCC[C@@]4(C)C(=O)O)(CC1=O)C2 (stereo not given in full),0.8,nt,-40.3,-48.1,-13.2,-0.7,nt,nt,nt,-0.9
COc1ccc(NC(=O)c2ccc(S(=O)(=O)N3CCOCC3)o2)cc1,0.1,2.0,2.3,8.8,-3.9,-0.4,104.2%,-5.2,0.2,0.3
Cc1nn(CC(=O)NCCCc2ccccc2)c(=O)c2cc3occc3n12,-4.6,5.0,1.4,4.8,-1.3,1.3,nt,-0.5,-5.9,-0.3
Cc1ccc(S(=O)(=O)N(CC(=O)Nc2ccccc2)C(=O)N2CCN(C)CC2)cc1,-2.5,4.6,0.6,2.8,-0.9,0.3,1.8%,-9.2,2.0,-0.6
Cc1cc2c3c([nH]c2cc1S(=O)(=O)NCc1ccc(CN2CCCCCC2)o1)CC(C)(C)CC3=O,3.8,0.3,0.3,-3.6,-1.8,6.9,nt,-3.7,-4.6,1.2
COC/C=C/C1=CC2=CC(=O)C(C)(OC(=O)c3cnc4ccccc4n3)C(=O)C2=CN1CCc1c[nH]c2ccccc12 (stereo not given),4.8,4.3,nt,nt,nt,nt,nt,11.5,-5.5,1.5
O=C(c1ccoc1)N1CCCC(N2CCN(c3ccc(F)cc3)CC2)C1 (stereo not given),-1.0,nt,12.7,17.3,1.4,-2.8,nt,nt,-13.0,0.7
N/C(=N\OC(=O)Cc1ccc(Cl)cc1)c1cccnc1,-1.5,0.3,-10.7,-1.1,12.6,8.1,12.1%,-1.1,-8.9,-0.8
COc1ccc(NC(=O)CS(=O)c2cccc(Cl)c2)cc1 (stereo not given),-5.9,-0.9,-2.1,0.9,-2.4,-1.3,-5.8%,-13.2,-17.8,-0.5
CCNC(=O)N1CCCC(C(=O)c2ccc(-c3ccccc3)cc2)C1 (stereo not given),6.6,-1.6,-15.4,-7.7,0.8,3.1,nt,-1.3,-1.1,-1.2
Cc1cccc2c1cnn2C(=O)CCC(=O)N1CCC(C)CC1,-3.5,0.0,-10.9,-30.8,3.1,-9.9,nt,-0.6,7.0,-0.1
Cc1cc(C)cc(-n2ncc3c2CCCC3NC(=O)c2csnn2)c1 (stereo not given),-1.5,3.7,0.1,-3.9,10.6,0.6,nt,0.9,4.3,-0.9
CC1=NN(Cc2ccccc2)C(=O)C1C(c1ccncc1)C(C#N)C#N (stereo not given),-4.8,-3.6,11.4,11.6,-2.9,-4.8,?,1.5,-6.1,0.1
O=C(NNC(=O)c1ccc(-n2cncn2)c([N+](=O)[O-])c1)c1cccc(Cl)c1,2.4,-2.4,-1.0,5.0,-3.8,0.5,3.9%,4.2,-3.5,-4.7
CC(=O)Cn1cnc2sc(-c3ccccc3)cc2c1=O,-6.7,-0.8,nt,nt,nt,nt,19.0%,-0.4,-10.0,0.4
O=C1CC(c2nc3ccccc3[nH]2)CN1c1cccc(C(F)(F)F)c1 (stereo not given),4.7,-2.3,-18.7,-23.9,-6.5,3.1,5.3%,5.6,-14.9,0.7

# From PubChem
